High-throughput results deposited in PubChem by several laboratories.
RGS16-Gao – regulators of human RGS16-Galphao interaction. hit rate 0.38% among 220,000. O15492+P09471. bead-based flow cytometry RGS16-Galphao binding, fluorescence; actives lie on both sides. binding response (% of control), % at 10 µM. AID 1441;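 active means below 25% or above 175%, edge rows of some plates excepted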;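 further: Galphao activated by GDP with aluminum fluoride before binding; 100% = wells without compound and 0% = beads without RGS; some results beyond the cut were filed as inactive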
Target sequence (O15492 whole entry, looked up): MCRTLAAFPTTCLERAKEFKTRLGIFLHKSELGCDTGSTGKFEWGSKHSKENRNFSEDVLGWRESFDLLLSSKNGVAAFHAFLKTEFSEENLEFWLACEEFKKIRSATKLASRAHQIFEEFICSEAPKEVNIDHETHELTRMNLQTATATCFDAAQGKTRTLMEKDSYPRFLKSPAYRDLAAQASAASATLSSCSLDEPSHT
Target sequence (P09471 whole entry, looked up): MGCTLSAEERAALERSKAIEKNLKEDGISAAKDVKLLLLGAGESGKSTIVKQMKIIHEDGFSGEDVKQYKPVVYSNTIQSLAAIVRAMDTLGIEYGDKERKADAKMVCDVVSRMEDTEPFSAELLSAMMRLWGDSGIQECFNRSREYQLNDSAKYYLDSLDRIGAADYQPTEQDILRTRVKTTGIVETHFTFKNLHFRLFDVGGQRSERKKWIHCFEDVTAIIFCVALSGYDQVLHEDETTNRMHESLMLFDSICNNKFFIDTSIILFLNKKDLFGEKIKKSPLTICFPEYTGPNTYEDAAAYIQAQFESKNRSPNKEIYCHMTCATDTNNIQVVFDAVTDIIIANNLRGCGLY
HSV augment – increases HSV replication in cells | HSV replication augmentation in cells, fold increase | maximum fold increase | hit rate 0.005% among 220,000 | AID 1956;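 active means peak rise of 1.5-fold or more in the series; tested in PC3 cells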;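 further: first round at 10 µM; read as green reporter fluorescence; hits show the peak of a series up to 25 µM; 1 = signal of infected wells without compound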
PKD1 inh – PKD1 (human) kinase inhibition | PKD1 kinase fluorescence polarization assay | inhibition, %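 (about 10 µM by stock and volumes)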 | hit rate 0.056% among 200,000;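 active means inhibition of 50% or more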;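 further: controls were vehicle for no effect and a reference inhibitor for full effect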
GALR2 ag – activates the human galanin receptor 2 | O43603 | GALR2-expressing cells, agonist activation read-out | activation, %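 (tested at 5 µM)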 | hit rate 0.48% among 140,000 | AID 803;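 active means above mean plus 3 SD of all compounds, about 5% in these data, not always enough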;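 further: 0% = vehicle buffer wells and 100% = reference agonist at full effect; tested in CHO reporter cells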
Target sequence (O43603 whole entry, looked up): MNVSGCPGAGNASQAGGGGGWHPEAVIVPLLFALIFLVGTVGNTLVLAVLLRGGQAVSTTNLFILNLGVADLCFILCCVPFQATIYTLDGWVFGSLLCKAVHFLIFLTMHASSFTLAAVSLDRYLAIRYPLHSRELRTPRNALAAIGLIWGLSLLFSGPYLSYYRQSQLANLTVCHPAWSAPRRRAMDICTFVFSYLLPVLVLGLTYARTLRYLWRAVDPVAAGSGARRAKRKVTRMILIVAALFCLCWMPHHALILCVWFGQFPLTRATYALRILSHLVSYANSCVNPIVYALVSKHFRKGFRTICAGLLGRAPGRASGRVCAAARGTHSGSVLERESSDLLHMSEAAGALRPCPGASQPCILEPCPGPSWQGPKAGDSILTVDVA
Insulin prom inh – TRM-6 insulin promoter activity inhibition; TRM-6 cells (human fetal islet line), insulin promoter-eGFP reporter, imaging; reporter expression induced with tamoxifen; inhibition, % at 2 µM; hit rate 0.9% among 130,000; AID 1273;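 active means inhibition above the mean plus 3 SD, with well images judged a real hit on visual review, cut at about 60% in these data, passing the limit was not always enough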
Insulin prom inh cell count – also measured in Insulin prom inh; calls as there; normalized cell count, %; measured here: cell count, toxicity; reference of the scale not given here;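 cells exposed to compound for 48 h; stained nuclei by imaging scaled within each plate; lower means fewer cells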
HSV augment primary fold – second read-out of HSV augment, no call of its own (marks repeat the call); fold increase; compound at 10 µM; measured here: primary screen fold increase 10 uM; tested in PC3 cells;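 GFP signal in the first replicate; 1 = infected wells without compound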
The depositor's hits bear a star; i = inactive; . = no result given.

SMILES | RGS16-Gao | HSV augment | HSV augment primary fold | PKD1 inh | GALR2 ag | Insulin prom inh | Insulin prom inh cell count
Cc1cc(OC(=O)c2ccco2)c2c(C)cc(=O)oc2c1 | 102 | i | 0.92 | 18 | -1.9 | 7 | 108
Cc1cccc(OCCC(=O)NCC(c2ccco2)N2CCCCC2)c1 (stereo not drawn) | 108 | i | 0.87 | 0 | -3.0 | -8 | 66
CC(C(=O)NCCCc1ccccc1)c1ccc([N+](=O)[O-])cc1 (stereo not drawn) | 83 | i | 0.85 | 5 | . | 5 | 71
COc1ccccc1C(=O)NCc1ccccn1 | 104 | i | 0.8 | 0 | . | . | .
O=C(O)CC1NC(=O)N(c2ccccc2)C1=O (stereo not drawn) | 98 | i | 0.82 | 7 | -2.5 | -500 | 60
COc1ccc2cc(C(=O)NCc3ccco3)c(=Nc3ccc(C(=O)O)cc3)oc2c1 | 99 | i | 0.84 | 13 | -0.8 | -62 | 68
COc1ccc(C2/C(=C(/O)c3ccc4c(c3)CC(C)O4)C(=O)C(=O)N2CCN2CCOCC2)cc1 (stereo not drawn) | 100 | i | 0.91 | -5 | 0.6 | -8 | 82
COC(=O)c1ccc(C2/C(=C(/O)c3ccc(OC(C)C)cc3)C(=O)C(=O)N2c2cc(C)on2)cc1 (stereo not drawn) | 88 | i | 1 | -6 | -0.8 | 57 | 121
COc1ccc(OCC2CCCN(Cc3nc(CC4CC4)no3)C2)cc1 (stereo not drawn) | 97 | i | 0.95 | -6 | . | . | .
Brc1ccc(Cn2c(-c3cncs3)nc3ccccc32)cc1 | 103 | i | 0.8 | -2 | -2.2 | 21 | 125
CC1CC(C)CN(C(=O)c2cn(C)c3ccc(S(=O)(=O)N(C)C)cc3c2=O)C1 (stereo not drawn) | 103 | i | 0.94 | -2 | -3.8 | . | .
Cc1cc2c(c(=O)o1)C(c1ccc([N+](=O)[O-])o1)C(C#N)=C(N)O2 (stereo not drawn) | 101 | i | 1.2 | . | . | . | .
CC(C)(C)C(=O)NC1(C(F)(F)F)NC(=O)N(c2ccc(F)cc2)C1=O (stereo not drawn) | 102 | i | 1 | 8 | . | . | .
CSc1nnc(-c2ccc(C(F)(F)F)cn2)o1 | 102 | i | 1.1 | . | . | . | .
Cc1c(CN(C)CCc2ccccc2)c(=O)n(-c2ccccc2)n1C | 101 | i | 0.88 | -5 | -1.2 | . | .
O=C(c1ccc(CS(=O)(=O)c2ccccc2)o1)N1CCN(c2ncccn2)CC1 | 113 | i | 0.95 | -16 | -1.3 | . | .
CCS(=O)(=O)c1ccc2oc(Nc3ccc(C(C)C)cc3)nc2c1 | 66 | i | 0.83 | 3 | -0.9 | 12 | 85
C=CCc1ccc(OCCOCCNCCOC)c(OC)c1 | 97 | i | 0.93 | -5 | -0.5 | -6 | 117
CC(C)c1ccc(NC(=S)NN2CCN(C)CC2)cc1 | 97 | i | 0.94 | 5 | . | . | .
COCCn1c(C)cc(C(=O)COC(=O)c2ccc[nH]c2=O)c1C | 104 | i | 1 | 3 | -1.2 | 1 | 66
COc1cccc(C(=O)Cn2c(=O)n(CCC(=O)NCC3CCCO3)c(=O)c3cc(OC)c(OC)cc32)c1 (stereo not drawn) | 98 | i | 1 | -7 | . | . | .
O=C(NCc1ccc2c(c1)OCO2)c1ccc(CN2CCOCC2)cc1 | 98 | i | 1 | 3 | -1.4 | 89* | 41*
NC(=S)Nc1ccc(F)cc1F | 102 | i | 0.88 | . | . | . | .
O=C(COc1cnc2ccccc2n1)NCCC1=CCCCC1 | 109 | i | 0.79 | -7 | -2.0 | -82 | 89

Next part (3 carried over from the part before).
SMILES | RGS16-Gao | HSV augment | HSV augment primary fold | PKD1 inh | GALR2 ag | Insulin prom inh | Insulin prom inh cell count
O=C(NCc1ccc2c(c1)OCO2)c1ccc(CN2CCOCC2)cc1 | 98 | i | 1 | 3 | -1.4 | 89* | 41*
NC(=S)Nc1ccc(F)cc1F | 102 | i | 0.88 | . | . | . | .
O=C(COc1cnc2ccccc2n1)NCCC1=CCCCC1 | 109 | i | 0.79 | -7 | -2.0 | -82 | 89
Cc1cc(C)c2[nH]c(=O)c(C(c3nnnn3C(C)(C)C)N3CCN(C(=O)c4ccco4)CC3)cc2c1 (stereo not drawn) | 103 | i | 0.91 | -4 | 0.2 | . | .
CCOC(=O)NNc1ccc2nonc2c1[N+](=O)[O-] | 95 | i | 1.2 | . | . | . | .
COc1ccc(CC(=O)NCC(c2ccc(OC)cc2)N(C)C)cc1 (stereo not drawn) | 102 | i | 1 | -9 | . | . | .
CCOC(=O)c1cnn2c(C(F)(F)F)cc(-c3ccco3)nc12 | 98 | i | 0.86 | 3 | 0.4 | . | .
Cc1cc(-c2ccc(C(=O)O)s2)cnc1N | 108 | i | 0.86 | -4 | . | . | .
CCOC(=O)N/N=C(\C)c1ccc(C)o1 | 104 | i | 1 | -7 | . | . | .
CC(C)Cc1cc(C(=O)O)c2ccccc2n1 | . | i | 0.86 | -7 | -1.2 | -200 | 64
Cc1ccccc1OCCNC(=S)Nc1ccccc1 | 95 | i | 0.95 | 7 | -2.9 | . | .
O=C(Nc1ccc2c(c1)OCO2)C1CCCN1C(=O)Nc1cccc(F)c1 (stereo not drawn) | 96 | . | . | 0 | -1.7 | 17 | 119
O=S(=O)(CCc1ccncc1)Cc1ccc2c3c(cccc13)CC2 | 97 | i | 0.92 | . | . | . | .
COc1ccc(C2C(C#N)=C(N)Oc3n[nH]c(C)c32)cc1Cn1cc([N+](=O)[O-])cn1 (stereo not drawn) | 97 | i | 0.94 | -5 | -0.6 | 14 | 253
COCCCNC(=O)c1ccc2nc3ccccc3c(=O)n2c1 | 96 | i | 1 | 3 | -2.4 | -100 | 119
CCCSC1=NN2CCCC(=O)N=C2S1 | 36 | i | 1.1 | 7 | . | 8 | 44
C=CCOc1ccc(/C(CC)=N/O)cc1OC | 92 | i | 0.9 | -3 | -1.8 | 11 | 126
COCC(=O)NNC(=O)Cc1ccc(Cl)cc1 | 103 | i | 1 | -5 | . | . | .
Cc1ccc(C2(c3noc(CN(C)CC4CCCCO4)n3)CCCC2)cc1 (stereo not drawn) | 102 | i | 1 | 0 | . | . | .
O=C(CS(=O)(=O)Cc1ccccc1)NCc1ccc2c(c1)OCO2 | 102 | i | 0.9 | -5 | -3.5 | 19 | 138
O=C(O)c1ccccc1C(=O)N1CCN(c2cccc(Cl)c2)CC1 | 118 | i | 1 | -6 | -0.7 | 69 | 142
Cc1ccc(N(CC(=O)N/N=C/c2ccco2)S(=O)(=O)c2ccccc2)cc1 | 117 | i | 0.89 | -5 | -1.3 | . | .
O=S(=O)(Nc1ccc(-c2csc(-c3ccccc3)n2)cc1)c1ccccc1 | 101 | i | 0.87 | 4 | 0.7 | -53 | 91
COc1ccc(-c2ccc(-c3noc(C4CCCCC4)n3)c(OC)n2)cc1 | 100 | . | . | -12 | -0.3 | . | .
CN(C)/C(Cn1cncn1)=C1/N=C(c2c(F)cccc2F)OC1=O | 97 | i | 1.2 | 1 | . | . | .
C=CCn1c(=O)c2c(nc3n2CC(C)CN3c2cccc(OC)c2)n(C)c1=O (stereo not drawn) | 107 | i | 0.97 | -2 | -1.1 | . | .
Cc1ccc(S(=O)(=O)N2CCSC2C(=O)O)cc1 (stereo not drawn) | 103 | i | 0.92 | -4 | -1.0 | . | .
Cc1oc(-c2ccc(Cl)cc2)nc1CN1CCC(C(=O)NCc2cccs2)CC1 | 107 | i | 0.89 | 4 | 3.5 | 3 | 116
Cc1ccc(C(=O)Nc2ccc(Cl)cc2C)c(Cl)c1 | 105 | i | 0.95 | -6 | . | -14 | 96
Nc1nnc(SCC(=O)Nc2ccc3nc(SCC(=O)Nc4ccccc4)sc3c2)s1 | 105 | i | 1.1 | -6 | -0.8 | . | .
C/C(=N\NC(=O)C1(C)CC1(Br)Br)c1cccc(NC(=O)C2CCC2)c1 (stereo not drawn) | 108 | i | 0.76 | 0 | -1.1 | -19 | 137
COc1ccc(-n2nnnc2SCC(=O)N2CCCC2)cc1OC | 103 | i | 1.3 | 2 | -1.1 | 5 | 141
COc1ccc(C)cc1NC(=O)CN(c1ccc(F)cc1)S(C)(=O)=O | 83 | i | 0.71 | -8 | 0.1 | -17 | 100
CCCCCCCCSc1nnc(-c2ccc(OC)cc2)o1 | 105 | i | 1.1 | -4 | -4.6 | -186 | 70
O=C(Cc1ccc(Nc2nc(=S)[nH]c3ccccc23)cc1)NC1CCCCC1 | 72 | i | 0.91 | 2 | . | . | .
O=C(NCCN1CCOCC1)c1cc(S(=O)(=O)Nc2ccccc2F)c(Cl)cc1Cl | 93 | i | 0.98 | . | . | . | .
COc1cc(/C=C/C(=O)CC(=O)/C=C/c2ccc(O)c(OC)c2)ccc1O | 159 | i | 0.84 | -2 | 0.9 | -50 | 103
O=C(N/N=C/c1ccc[nH]1)c1ccc(O)cc1 | 107 | i | 0.88 | -2 | . | . | .
CN(Cc1ccccc1)C(=O)CCNC(=O)Cn1cnc2ccccc2c1=O | 103 | i | 1 | 2 | -2.4 | . | .

6 entries from above, set out differently.
Structure,RGS16-Gao,HSV augment,HSV augment primary fold,PKD1 inh,GALR2 ag,Insulin prom inh,Insulin prom inh cell count
CCCCCCCCSc1nnc(-c2ccc(OC)cc2)o1,105,i,1.1,-4,-4.6,-186,70
O=C(Cc1ccc(Nc2nc(=S)[nH]c3ccccc23)cc1)NC1CCCCC1,72,i,0.91,2,.,.,.
O=C(NCCN1CCOCC1)c1cc(S(=O)(=O)Nc2ccccc2F)c(Cl)cc1Cl,93,i,0.98,.,.,.,.
COc1cc(/C=C/C(=O)CC(=O)/C=C/c2ccc(O)c(OC)c2)ccc1O,159,i,0.84,-2,0.9,-50,103
O=C(N/N=C/c1ccc[nH]1)c1ccc(O)cc1,107,i,0.88,-2,.,.,.
CN(Cc1ccccc1)C(=O)CCNC(=O)Cn1cnc2ccccc2c1=O,103,i,1,2,-2.4,.,.

Further compounds:
SMILES | RGS16-Gao | HSV augment | HSV augment primary fold | PKD1 inh | GALR2 ag | Insulin prom inh | Insulin prom inh cell count
COc1cc(/C=N/NC2=NC(C)(C)Cc3ccccc32)cc(OC)c1OC | 62 | i | 1 | -2 | . | 21 | 79
Cc1ccc(OCC(O)Cn2c(=N)n(CCN3CCOCC3)c3ccccc32)cc1 (stereo not drawn) | 96 | i | 0.83 | -6 | -3.2 | -36 | 121
COc1ccc(CN=C(N)N=C(N)N)cc1Cl | 94 | i | 1.1 | 4 | . | -44 | 62
CCN(CC)C(=O)CSC(=Nc1ccccc1F)NC#N | 103 | i | 1.4 | 12 | -2.1 | . | .
C=CCn1c(/N=C/c2ccc3c(c2)OCO3)nc2ccccc21 | 99 | i | 0.95 | -10 | -1.4 | -43 | 173
COc1ccccc1/C=C/C=N/NC(=O)Cc1cccn1C | 89 | i | 0.91 | 3 | -0.8 | 19 | 116
COCCn1nnnc1C(c1cccs1)N1CCCC(C)C1 (stereo not drawn) | 104 | i | 1 | -2 | . | . | .
O=c1c(Cl)c(NCc2ccccc2Cl)cnn1C12CC3CC(CC(C3)C1)C2 | 97 | i | 0.71 | -12 | -2.1 | 44 | 114
CCN(CC)S(=O)(=O)c1cccc(NC(=O)COC(=O)CCC(=O)c2ccc(F)cc2)c1 | 104 | . | . | -3 | -0.7 | -8 | 126
O=C(NCC(c1cccnc1)N1CCOCC1)NC1CCCCC1 (stereo not drawn) | 105 | i | 0.97 | -4 | . | -7 | 110
CC(=O)/C=C(\C)NCCNc1c(F)c(F)c(CO)c(F)c1F | 103 | i | 0.97 | -3 | -1.6 | . | .
CCn1c(SCc2nc3ccccc3[nH]2)nnc1-c1ccc(OC)cc1 | 98 | i | 1.1 | -4 | -2.7 | -21 | 103
CCC/C(=N\NC(=O)Cc1csc(N2CCOCC2)n1)c1ccccc1 | 120 | i | 1 | -5 | . | -27 | 80
O=S(=O)(NC1CCN(Cc2ccccc2)CC1)c1ccc2ccccc2c1 | 100 | i | 0.97 | -10 | . | . | .
COc1ccc(NC(=O)C(=O)N/N=C/c2cccnc2)c(OC)c1 | 100 | i | 0.84 | 2 | -4.1 | . | .
CC(C)CN(CC(C)C)C(=O)CCCC(=O)N(CC(C)C)CC(C)C | 103 | i | 0.92 | -3 | -2.0 | -33 | 76
Fc1ccc(NC(=S)NC2CCCCC2)c(F)c1F | 102 | i | 0.94 | -5 | -0.2 | . | .
CSc1ccc(C(=O)C2CCCN(Cc3cccc4nccnc34)C2)cc1 (stereo not drawn) | 110 | i | 0.85 | . | . | . | .
CSc1nc(N)nc(SCC(=O)CC(=O)OC(C)C)c1C#N | 73 | i | 0.92 | 6 | -0.8 | 14 | 69
CCN1CN(CCc2ccccc2)CNC1=S | 110 | i | 0.98 | -8 | -1.2 | . | .
